High-throughput results (PubChem BioAssay)
Six1-Eya2 blk = Six1/Eya2 interaction inhibition. AlphaScreen GST-Six1/His-Eya2 binding, biochemical; hits give low values; control for the full effect not named in the record. activity change, % (concentration not given with the values). 360,000 compounds, 0.56% hits. AID 651725; in the data active = activity change below about -65%; inconclusive = about -30% to -65%; inactive = above about -30%; also: % is scaled to controls: 0 for no effect and ±100 for the full control effect
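Compounds are tested against tagged Six1 and Eya2 proteins bridged by glutathione donor and nickel acceptor beads; after a one-hour incubation at 37 °C without light, AlphaScreen emission is recorded.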
CtBP-E1A blk = blocks the CtBP interaction with E1A. 340,000 compounds, 0.49% hits. AlphaScreen GST-E1A/His-CtBP binding, 1536-well; hits give low values; control for the full effect not named in the record. AID 651724. activity change, % (test concentration not listed); in the data active means activity change below about -65%; inconclusive means about -30% to -65%; inactive means above about -30%; also: % is scaled to controls: 0 for no effect and ±100 for the full control effect
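In 5 uL wells, 23 nL compound meets equimolar GST-E1A and His-CtBP (5X stock 125 nM each) for 2 h, 37 °C. Beads (5X, 50 ug/mL) then 1 h, 37 °C, dark.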
TRPML1 agonist = agonists of human TRPML1 channel; Q9GZU1; TRPML1-expressing cells, Ca2+ dye fluorescence, FDSS; host cell line not named in the record; reference of the full effect not given here; activation, % (concentration not given with the values); 410,000 compounds, 0.12% hits; in the data active = activation above about 50%; inconclusive = about 30% to 50%; inactive = below about 30%; also: 0% is about no effect; the text of the record puts the active cut at 80%
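In this qHTS format, compounds were pin-transferred onto Ca8-dye-loaded TRPML1-DL cells induced with Tet overnight, and intracellular Ca2+ fluorescence was recorded kinetically for 110 s after a 10 s baseline. A subsequent 4uM final 54-4 (EC80) addition followed by a second 110 s read served as the antagonist phase.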
D2 ag = agonists of human D2 dopamine receptor (beta-arrestin). P14416. DiscoveRx PathHunter D2 beta-arrestin, luminescence, 90 min; 100% = 57 uM dopamine signal. activation, % (test concentration not listed). 360,000 compounds, 0.084% hits. AID 624465; in the data active = activation above about 40%; inconclusive = about 15% to 40%; inactive = below about 15%; also: compound concentration not given in the record; the text of the record calls up to 30% inactive
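DiscoveRx PathHunter D2 beta-arrestin cells (2,100/well) attached overnight, then compound-stimulated 90 min at 37 C in HBSS/10 mM HEPES/0.1% Tween-20 buffer; beta-galactosidase complementation read by luminescence after 1 h at ambient temperature. Dopamine 57 uM final (EC100) as control.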
PINK1 expr mod = changes PINK1 expression. PINK1 immunofluorescence, high-content cytometry, 24 h. Potency, µM (doses to about 76.6 µM), inactives show at the top dose activation (PINK1 increase), hits mostly activators. 410,000 compounds, 0.2% hits; active = well fitted activation curve with a large enough effect; inconclusive = small, poorly fitted or top-dose-only effect; inactive = flat fitted curve, though single readings scatter; cell line not stated here;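 also: potency is read from the fitted curve at half-maximal effect; % of control where 0% means no effect; nearly all actives have a fitted effect of over 65% in size; a mitochondrial uncoupler was the plate control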
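Stable cell line, 250 cells/well, 12 h attachment; compounds pinned at 5 concentrations, 24 h; CCCP control. Fixed with nuclear dye, primary antibodies 12 h at 10 degrees C, secondary plus cell stain; laser-scanning cytometer read.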
TRPML1 blocker = human mucolipin-1 channel inhibition | TRPML1-inducible cells, Ca2+ dye fluorescence, FDSS; hits give low values; inhibition of EC80 agonist-evoked calcium signal | activity change, negative = inhibition, % (no concentration beside the values) | 390,000 compounds, 0.02% hits; in the data active means activity change below about -50%; inconclusive means about -30% to -50%; inactive means above about -30%;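 also: stimulus is agonist 54-4 at its EC80 concentration; % is scaled to controls: 0 for no effect and ±100 for the full control effect; compound concentration not given in the record; the text of the record puts the active cut at -80%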
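TRPML1-DL cells, Tet-induced overnight (~16 h, 37 °C) at 1,500 cells/well, were loaded with Ca8 no-wash dye plus quencher for 45-90 min at room temperature. Compounds were pinned during FDSS kinetic reading; agonist 54-4 at EC80 (4 uM final) then added.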
* marks the source's active call; other numbers are inactive results; & = joins results of further samples. Some of the compounds tested. The share of hits here may be higher or lower than overall.

SMILES | Six1-Eya2 blk | CtBP-E1A blk | TRPML1 agonist | D2 ag | PINK1 expr mod | TRPML1 blocker
CC[C@@H]1C(=O)OC[C@@H]1Cc1cncn1C | 5&8 | 9&0 | 0.3&-0.2 | -2.4&-5.6 | -0.4%&-0.6% | 19&0
